Rango complex inh: qHTS Assay for Inhibitors of Rango (Ran-regulated importin-beta cargo) - Importin beta complex formation; Importin subunit beta-1 (Homo sapiens), Q14974; 340,000 compounds, 0.031% hits; AID 540263, 2011; Potency, µM (top dose mostly 92.2 µM), for the others: top-dose inhibition of complex formation; Rango CFP/YFP FRET sensor + importin beta, 45 min; active = rising FRET ratio curve, often small or poorly fitted; inconclusive = mostly compound fluorescence or quenching in the first reads; inactive = flat curves in all reads;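 further: potency means the concentration at half of the fitted maximal effect; 0% = DMSO wells and 100% = buffer wells lacking importin beta; nearly all actives have a fitted effect of over 15% in size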
Target sequence (Q14974 whole entry, looked up): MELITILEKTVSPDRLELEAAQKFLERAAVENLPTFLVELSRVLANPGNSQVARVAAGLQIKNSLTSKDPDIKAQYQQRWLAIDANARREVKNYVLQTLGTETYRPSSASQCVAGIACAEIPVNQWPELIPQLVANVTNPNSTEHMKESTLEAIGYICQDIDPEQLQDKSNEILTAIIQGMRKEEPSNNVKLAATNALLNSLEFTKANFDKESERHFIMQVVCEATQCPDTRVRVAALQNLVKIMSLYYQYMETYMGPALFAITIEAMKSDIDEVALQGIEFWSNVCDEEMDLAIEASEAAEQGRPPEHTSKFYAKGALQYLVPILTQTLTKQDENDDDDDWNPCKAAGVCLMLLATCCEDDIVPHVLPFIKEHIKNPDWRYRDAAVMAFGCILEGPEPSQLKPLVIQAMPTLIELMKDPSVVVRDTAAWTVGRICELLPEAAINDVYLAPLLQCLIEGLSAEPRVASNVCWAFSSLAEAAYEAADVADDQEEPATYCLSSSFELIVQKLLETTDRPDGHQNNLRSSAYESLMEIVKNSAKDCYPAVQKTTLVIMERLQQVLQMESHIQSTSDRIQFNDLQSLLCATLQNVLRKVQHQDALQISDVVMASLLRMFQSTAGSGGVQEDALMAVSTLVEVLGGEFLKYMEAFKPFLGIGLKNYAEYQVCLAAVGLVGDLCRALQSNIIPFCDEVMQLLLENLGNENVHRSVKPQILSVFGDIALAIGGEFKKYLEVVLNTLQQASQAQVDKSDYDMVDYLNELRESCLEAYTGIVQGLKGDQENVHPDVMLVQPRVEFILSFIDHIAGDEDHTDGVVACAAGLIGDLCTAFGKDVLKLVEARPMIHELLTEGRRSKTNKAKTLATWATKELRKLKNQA
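FRET biosensor (snurportin 1 IBB flanked by EYFP and cerulean), 50 nM, with compound 5 min, then 0.125 microM importin beta in PBS, 1 mM DTT, 0.02% Tween-20, 0.1% BSA. CFP/YFP ratio read after 45 min at room temperature; pre-read flags interference.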
miR-21 FLuc: qHTS Assay for Modulators of miRNAs and/orActivators of miR-21 | AID 2288, 2010 | 340,000 tested, under 10 active | HeLa miR-21 FLuc reporter, luciferase, 48 h | Potency, µM (highest dose often 38.3 µM), inactives show at the highest dose reporter change, positive = more light; active = well fitted rising curve with a large enough effect; inconclusive = small, poorly fitted or top-dose-only effect; inactive = no such curve, though single readings can be large or run the other way;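 further: % of control where 0% means no effect; miR-21 action dims this reporter so a rising signal means less miR-21 action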
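HeLa cells endogenously expressing miR-21, stably carrying CMV-driven firefly luciferase with a downstream miR-21 binding site, 2000 cells/well. Titrations up to approximately 40 uM, 48 hours; luciferase luminescence read.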
GLA inh pH 4.5: qHTS Assay for Inhibitors of Human alpha-Galactosidase at pH 4.5; Alpha-galactosidase A (Homo sapiens), P06280; purified enzyme, 4-MU-alpha-Gal fluorescence, pH 4.5; AID 1467, 2008; 230,000 tested, under 10 active; activity change, negative = inhibition, % at 105 µM; inconclusive = small, poorly fitted or top-dose-only inhibition, or a rising curve; inactive = flat fitted curve, though single readings scatter; no compound was filed as active;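 further: 0% = full activity with enzyme and -100% = basal without enzyme; dose as in the result columns while the protocol names 77 µM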
Rango release inh: qHTS Assay for Inhibitors of RanGTP induced Rango (Ran-regulated importin-beta cargo) - Importin beta complex dissociation | 340,000 compounds, 0.071% hits | Biochemical FRET Rango-importin beta, RanGTP-induced dissociation | Snurportin-1 (Homo sapiens) + GTP-binding nuclear protein Ran (Homo sapiens) + Importin … | AID 540253, 2011 | Potency, µM (series often up to 46.1 µM), inactives show at the top dose activity change, negative = inhibition; active means falling FRET ratio curve, often poorly fitted, with flat reads before Ran was added; inconclusive means other falling curves, or compound fluorescence or quenching; inactive means flat or rising ratio curve;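 further: potency means the concentration at half of the fitted maximal effect; % of control where 0% means no effect; nearly all actives have a fitted effect of over 45% in size; -100% = wells without RanGTP and RCC1; the record marks most hits as doubtful in a second field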
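Rango FRET biosensor (snurportin-1 IBB flanked by N-terminal EYFP and C-terminal CFP10) at 0.1 uM, with 0.25 uM importin beta in PBS, 1mM DTT, 0.02% Tween-20, 0.1% BSA. 0.6 uM Ran, 2mM GTP and 0.2 uM RCC1 were then added for 45 min at room temperature. Inhibition read as loss of FRET rise.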
The depositor's hits bear a star; ? = inconclusive; · = no result given. An excerpt; the hit share may differ from the screen's.

item	SMILES	miR-21 FLuc	Rango release inh	Rango complex inh	GLA inh pH 4.5
1	O=C(OCCOc1ccc(Br)cc1)c1ccc(Cl)nc1	-11%	11%	-1.3%	-8
2	CCC1(c2ccc(F)cc2)NC(=O)N(CC(=O)Nc2ccc(C)c(S(=O)(=O)N3CCOCC3)c2)C1=O (centres undefined)	7%	0%	4.4%	0
3	Cc1cc(-c2ccccc2)nc(N(C)NC(=O)c2c(F)cccc2F)c1S(C)(=O)=O	-5%	5%	-5.3%	-3
4	CCC(NC(=O)COc1cc2c(c3oc(=O)c(C)c(C)c13)CCC(C)(C)O2)C(=O)O (centres undefined)	-2%	16%	-2.5%	·
5	O=S(=O)(c1ccc(Br)s1)N1CCCCC1	-6%	15%	-3.2%	2
6	Cc1cc[n+](Cc2ccccc2)c(N)c1	·	4%	0.1%	·
7	Cc1nc2ccccc2c(=O)n1NC(=O)C1CC1C (centres undefined)	0%	18%	-1.8%	-12
8	CCN(CC)S(=O)(=O)c1ccc(OC)c(NC(=O)c2ccc3c(c2)OCO3)c1	-9%	0%	0.0%	-6
9	O=C1CCc2cc(S(=O)(=O)NC(Cc3ccccc3)C(=O)N3CCN(c4ccccn4)CC3)ccc2N1 (centres undefined)	-4%	16%	-4.9%	-2
10	COc1ccc2c(c1OC)C(=O)OC2N1C(=O)CC[C@H]1C(=O)Nc1ccc(F)cc1F (some centres undefined)	2%	17%	1.6%	·
11	O=C(NCCc1ccccc1)Nc1ccc2c(c1)OCO2	-53%	4%	1.2%	0
12	COc1ccccc1N(C)S(=O)(=O)c1ccc(C(=O)OCC(=O)N2CCCCCC2)cc1	1%	-7%	2.3%	1
13	CN(C)/C=C(\C=O)c1c(Cl)cccc1Cl	3%	6%	2.7%	9
14	CC(=O)c1cccc(NC(=O)COC(=O)Cc2ccc(Cl)cc2)c1	·	-8%	-1.4%	·
15	O=C1N/C(=N/N=C/c2ccccc2)SC1(c1ccccc1)c1ccccc1	-1%	6%	1.6%	-4
16	O=C1CCc2cc(S(=O)(=O)NC(C(=O)NCc3cccnc3)c3ccccc3)ccc2N1 (centres undefined)	-3%	0%	-2.4%	3
17	Nc1nc(=S)[nH]c2c1C1(CCCC1)Cc1ccccc1-2	1%	-8%	2.0%	12
18	CCC1(CC)NC(=O)N(CC(=O)OCC(=O)NC(=O)c2ccccc2)C1=O	0%	2%	?	-27
19	COC(=O)c1ccc(Cn2nc(C)c(Br)c2C)cc1	-7%	2%	0.0%	0
20	CCOc1ccccc1N(CC(=O)N(C)Cc1ccccc1)S(=O)(=O)c1ccccc1	-2%	-5%	0.4%	·
21	O=C(CN1CCOCC1)N/N=C/C=C/c1ccccc1	-11%	1%	11%	?
22	COc1ccc(/C=N\NC(=O)c2sccc2C)cc1Cn1nc(C)cc1C	-22%	-1%	-2.0%	·
23	O=C(NCc1ccco1)c1cccc(S(=O)(=O)N2CCOCC2)c1	1%	4%	1.8%	0
24	O=C(O)c1cccc(N=NN2CCOCC2)c1	-26%	9%	1.1%	7
25	CCOC(=O)c1noc(C)c1C(=O)Nc1cccc(F)c1	0%	-1%	-1.1%	-1
26	CC(=O)c1ccc(-c2ccc(C(=O)NC3CC(C)(C)NC(C)(C)C3)o2)cc1	·	-14%	-0.4%	·
27	CC1(C)CN=C(c2ccccc2)NC1	·	6%	-1.9%	·
28	COCCN1C(=O)c2ccc(C(=O)NCc3ccco3)cc2C1=O	0%	-9%	-4.6%	·
29	CCC(Sc1nc(-c2ccccc2)c(C#N)c(=O)[nH]1)C(=O)Nc1nnc(C)s1 (centres undefined)	2%	-1%	0.5%	2
30	Cc1ccc(-c2nc3ccccc3[nH]2)cc1NC(=O)c1sc2cc(Cl)ccc2c1Cl	-35%	-12%	-0.3%	-15
31	CC(=O)c1c(C)[nH]c(C(=O)N(C)CC(=O)Nc2ccc(Cl)c(C(F)(F)F)c2)c1C	-1%	-11%	4.7%	·
32	O=C(NNc1ccccc1[N+](=O)[O-])Nc1cccc(Cl)c1	-13%	-13%	-2.8%	-4
33	CC(=O)Nc1ccc(NS(=O)(=O)c2ccc3[nH]c(=O)[nH]c3c2)cc1	1%	0%	0.9%	-3
34	CCOc1ccccc1OCCCC(=O)Nc1cccc(S(=O)(=O)N2CCOCC2)c1	·	-10%	2.6%	·
35	Cc1cc(NC(=O)c2cc(-c3ccco3)on2)no1	-4%	-2%	-3.2%	-7
36	Cc1ccn2c(C(=O)c3ccc(Cl)cc3)cnc2c1	-46%	-8%	1.4%	2
37	N#Cc1c(-c2ccccc2)ccn(Cc2ccccc2Cl)c1=O	-10%	7%	2.6%	-2
38	Cc1cc(C(=O)Nc2cccc3c2O[C@H](CN(C)CC2CC2)[C@@H](C)CN([C@H](C)CO)C3=O)n(C)n1	·	-9%	6.9%	·
39	COc1cccc(NC(=S)N(CCc2c(C)[nH]c3ccccc23)Cc2cccs2)c1	6%	9%	-1.4%	-10
40	Cc1cc2n(n1)C(c1ccccc1Cl)Nc1ccccc1-2 (centres undefined)	-9%	13%	-3.6%	-5
41	Cc1cccc(NCC(=O)N/N=C/c2ccc(Br)cc2)c1	-1%	-9%	0.6%	13
42	COc1ccc(NC(=O)CSc2nnc(-c3cccc(O)c3)o2)cc1	-51%	8%	6.0%	·
43	Cc1cccc(OCc2nnc(NC(=O)Cc3cccs3)s2)c1	-8%	-11%	3.8%	2
44	CC(C)C(=O)Nc1cccc(-c2nc3ncccc3o2)c1	-18%	-12%	-0.7%	·
45	CC1=Nc2cccc3cccc(c23)N1	-11%	2%	0.6%	-1
46	COC(=O)c1ccc(=O)n(Cc2ccco2)c1	0%	?	2.2%	·
47	CN(C)C(CNC(=O)Cc1cccc(C(F)(F)F)c1)c1ccco1 (centres undefined)	-1%	-10%	1.2%	0
48	COc1cccc(-n2nnc3c(=O)n(CC(=O)OCc4ccccc4)cnc32)c1	-14%	-2%	1.1%	6
49	O=C(CN1C(=O)C(=O)c2ccccc21)c1ccccc1	-1%	-11%	2.6%	·
50	Cc1ccc(OCCn2c(Br)nc3c2c(=O)n(C)c(=O)n3C)cc1	0%	3%	-0.8%	-6

An excerpt from above in order of count of non-hydrogen atoms, rising:
item	SMILES	miR-21 FLuc	Rango release inh	Rango complex inh	GLA inh pH 4.5
49	O=C(CN1C(=O)C(=O)c2ccccc21)c1ccccc1	-1%	-11%	2.6%	·
41	Cc1cccc(NCC(=O)N/N=C/c2ccc(Br)cc2)c1	-1%	-9%	0.6%	13
47	CN(C)C(CNC(=O)Cc1cccc(C(F)(F)F)c1)c1ccco1 (centres undefined)	-1%	-10%	1.2%	0

New compounds follow:
item	SMILES	miR-21 FLuc	Rango release inh	Rango complex inh	GLA inh pH 4.5
51	Cc1ccc(-c2cc(C(=O)Nc3ccc(S(=O)(=O)Nc4nccs4)cc3)c3ccccc3n2)c(C)c1	8%	1%	-0.3%	-6
52	CCOc1ccc(C2CC(c3cccc(C)c3)n3ncnc3N2)cc1 (centres undefined)	0%	-28%	?	-4
53	O=C(Nc1ccc(N2CCCCC2)cc1)c1cc(S(=O)(=O)N2CCOCC2)ccc1F	·	-7%	0.1%	·
54	C=CCOc1ccc(CN(C)CC(=O)Nc2ccc3c(c2)CCC3)cc1	-2%	-1%	-1.2%	3
55	CCN(C(=O)COC(=O)c1nc(Cl)ccc1Cl)C1CCS(=O)(=O)C1 (centres undefined)	·	12%	2.0%	·
56	Nc1scc2c(C(=O)N/N=C/c3ccc(Cl)cc3)nn(-c3ccccc3)c(=O)c12	-3%	-5%	2.5%	-1
57	CC(C)CCN1CCN(Cc2cccc(-n3cccn3)c2)CC1CCO (centres undefined)	-2%	-3%	3.4%	-7
58	CCOc1ccc(C=NNc2ccc(S(=O)(=O)Nc3ccccc3C(=O)O)cc2[N+](=O)[O-])cc1OC	·	10%	?	·
59	CN1CCN(c2nc(-c3ccc(Cl)cc3Cl)nc3ccccc23)CC1	-14%	4%	4.8%	·
60	Cc1ccc(C)c(NC(=O)CSc2nnc(-c3ccncc3)o2)c1	11%	-7%	0.9%	-7
61	CS(=O)(=O)N(CC(=O)NC1CC2CCC1C2)c1cccc(C(F)(F)F)c1 (centres undefined)	-3%	3%	3.2%	-2
62	CCC1(C)NC(C(=O)O)Cc2c1[nH]c1ccccc21 (centres undefined)	4%	2%	-2.8%	·
63	CN(CC(=O)Nc1ccccc1Br)C(=O)c1ccccc1-c1nc2ccccc2s1	4%	11%	1.0%	·
64	CC(C)Cn1c2c(c(=O)[nH]c1=O)C(NS(=O)(=O)c1ccc(Cl)cc1)(C(F)(F)F)C(=O)N2 (centres undefined)	2%	1%	-6.7%	1
65	CCOCCCN(C(=O)CNC(=O)c1ccco1)C(C(=O)NC1CCCC1)c1ccccc1C (centres undefined)	-2%	-19%	-5.8%	5
66	COc1ccc(N/C(=C/[N+](=O)[O-])SC)cc1	3%	31%	1.5%	1
67	Cc1ccc(NC(=O)NNC(=O)C2CC(c3cccs3)=NO2)cc1 (centres undefined)	0%	1%	-1.2%	·
68	CCOc1ccc(NCc2cc3c(C(C)(C)C)nn(-c4ccccc4)c3[nH]c2=O)cc1	0%	-17%	0.3%	-10
69	O=C(CCc1ccccc1)NCCC1=CCCCC1	-34%	12%	1.3%	-1
70	CCOC(=O)Nc1cccc(OCC(=O)Nc2ccccc2OC)c1	-5%	1%	3.6%	2
71	COc1cc(/C=C/C(=O)Nc2ccc3[nH]c(=O)[nH]c3c2)cc(OC)c1OC	0%	8%	-5.1%	?
72	CCCCc1nnc(NC(=O)C2CC(=O)N(c3ccc(C)cc3)C2)s1 (centres undefined)	-1%	-1%	-0.8%	9
73	CCC(C)SCc1nc2ccccc2[nH]1 (centres undefined)	-25%	3%	0.9%	2
74	COc1ccccc1CNC(=O)COC(=O)c1cc(=O)[nH]c2ccccc12	·	8%	0.4%	·
75	N=c1oc2ccccc2cc1C(=O)N/N=C/c1ccccc1	-14%	-15%	-3.3%	-18
76	O=C(NC(=S)N1CCN(Cc2ccccc2)CC1)c1ccco1	-3%	-16%	-4.0%	0
77	COc1ccc(/C=C2/SC(=O)N(CCC(=O)Nc3ccc(S(=O)(=O)Nc4nccs4)cc3)C2=O)cc1	-58%	1%	-0.9%	-5
78	CN(C)S(=O)(=O)c1ccc(Oc2ccc(S(=O)(=O)N(C)C)cc2)cc1	17%	2%	-0.3%	4
79	NS(=O)(=O)c1ccc(CCNC(=O)CSc2nc3ccccc3c(=O)n2CC2CCCO2)cc1 (centres undefined)	0%	-10%	0.6%	·
80	CN(Cc1c(F)cccc1Cl)C(=O)CNC(=O)c1sc2ccccc2c1Cl	·	1%	0.4%	·
81	Cc1c(Cc2ccccc2)c(=O)oc2cc(OCC(N)=O)ccc12	-2%	1%	0.5%	-3
82	CCn1nc(C)c(CN2CCCC(CO)(Cc3ccccc3)C2)c1C (centres undefined)	-3%	-19%	?	-5
83	O=C(NC1CCN(Cc2ccc(F)cc2)CC1)c1ccccc1	1%	-7%	-0.7%	·
84	Cc1sc(NC(=O)/C=C/c2ccco2)c(C(=O)O)c1C	-13%	1%	0.6%	-15
85	CCOC(=O)N1CCN(C(=O)CS(=O)(=O)Cc2nc(-c3ccccc3F)oc2C)CC1	2%	-4%	-1.1%	·
86	COc1ccc(S(=O)(=O)NCc2ccccn2)cc1NC(=O)c1ccccc1C	·	11%	2.6%	·
87	CCCN(C(=O)C1CCCN(c2ncnc3c2nc2n3CCCCC2)C1)c1ccc(F)cc1 (centres undefined)	0%	5%	-3.8%	·
88	Cc1ccccc1C(=O)NNC(=O)CSc1nnc(-c2ccncc2)n1-c1ccccc1	-8%	-15%	-2.2%	-9
